Source: PubChem BioAssay (several laboratories)
PABP polyA inh: PABP-poly(A) binding inhibition; P11940; PABP-poly(A) RNA binding, fluorescence polarization; inhibition, % at 35 µM; 290,000 compounds, 1% hits; AID 2014;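 active means 50% or more with normal probe brightness, or confirmed in later tests; inconclusive means above 50% with abnormal brightness, or retests that disagree; inactive means below 50% or failed in later tests; about a fifth of its hits are not listed in these tables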;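 further: calls also rest on retests at 20 µM and on dose response follow-up; controls were probe without protein and protein plus probe with vehicle; some compounds called inactive have numbers as strong as hits; many hits fall short of the cut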
Target sequence (P11940 whole entry, looked up): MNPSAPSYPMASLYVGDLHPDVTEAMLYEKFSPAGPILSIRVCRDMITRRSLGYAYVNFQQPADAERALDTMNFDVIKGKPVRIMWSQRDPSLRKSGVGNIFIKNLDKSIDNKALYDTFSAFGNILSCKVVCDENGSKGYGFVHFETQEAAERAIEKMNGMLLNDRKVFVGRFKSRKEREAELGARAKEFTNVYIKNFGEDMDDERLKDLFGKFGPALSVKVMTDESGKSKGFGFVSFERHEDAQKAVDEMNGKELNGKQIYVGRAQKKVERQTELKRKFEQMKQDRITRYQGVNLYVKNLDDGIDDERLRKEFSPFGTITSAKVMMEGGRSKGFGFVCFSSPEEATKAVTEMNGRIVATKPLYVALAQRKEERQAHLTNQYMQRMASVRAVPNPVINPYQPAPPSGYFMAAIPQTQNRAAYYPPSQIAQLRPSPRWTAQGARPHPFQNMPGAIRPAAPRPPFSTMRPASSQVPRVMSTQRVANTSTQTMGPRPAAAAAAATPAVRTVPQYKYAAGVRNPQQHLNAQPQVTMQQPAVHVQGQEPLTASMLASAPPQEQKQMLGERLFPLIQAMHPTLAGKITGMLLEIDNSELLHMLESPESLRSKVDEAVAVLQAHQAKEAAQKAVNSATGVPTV
eIF4H FP inh: inhibitors of RNA binding by human eIF4H; Q15056; eIF4H fluorescence polarization binding assay; inhibition, % at 35 µM; 290,000 compounds, 0.94% hits;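 active means 50% or more with normal probe brightness, or confirmed in later tests; inconclusive means above 50% with abnormal brightness, or retests that disagree; inactive means below 50% or failed in later tests; about a fifth of its hits are not listed in these tables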;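 further: calls also rest on retests at 20 µM and on dose response follow-up; 0% = protein and probe with vehicle and 100% = probe without protein; strong numbers were not always called active; many hits fall short of the cut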
Rce1 inhib: blocks yeast Ras-converting enzyme. 290,000 compounds, 0.27% hits. yeast membranes, quenched prenylated peptide cleavage fluorescence. calls only;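 active means fall in fluorescence gain of 50% or more versus controls, with final raw signal at or below 3038400; inconclusive means same 50% fall but final raw signal above 3038400; inactive means fall in fluorescence gain under 50%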;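 further: plate controls were neutral control wells for no effect and wells lacking membranes for full effect; tested at 10 µM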
MT1-MMP act inh: blocks activation of human MT1-MMP | P50281 | HT1080 RFP-PRO-GFP cells, GFP/RFP ratio fluorescence, overnight; percent of plate control window, DMSO zero | GFP/RFP ratio change, % at 20 µM | 360,000 compounds, 0.061% hits | AID 651647;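 active means GFP/RFP ratio change of at least 30% with cell ATP level not reduced by more than half and red fluorescence within 50% of control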; further: strong numbers were not always called active
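Material – HT1080 RFP-PRO-GFP cells · Control set – DMSO wells and RFP-L50D-GFP cells · Incubation – overnight cell settling, then overnight compound exposure, 37 °C, 5% CO2 · Compound dosing – single-point 20 µM compound, 1% DMSO · Read-out – GFP/RFP fluorescence ratio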
Env fusion inh: HIV envelope-mediated fusion inhibition | inhibition, % at 12.3 µM | HeLa-JRFL Env/CEM21 cell fusion, luciferase | 360,000 compounds, 1.1% hits;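 active means mean replicate inhibition score of at least 50 and every replicate individually at or above 50; inconclusive means only one of the two criteria met; inactive means mean below 50 and not all replicates reaching 50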;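 further: 0% = plate neutral controls and 100% = maraviroc near 300 nM; one replicate is shown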
UUG fidelity: alters start codon recognition fidelity in yeast | S. cerevisiae UUG-firefly luciferase reporter, luminescence/redox ratio | AID 602363 | 350,000 compounds, 0.13% hits | activity score, % at 18.7 µM;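 active means replicate mean at a twofold rise or more, about +100% in these data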;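 further: firefly luciferase made from a UUG start codon reports start codon fidelity; reporter light over untreated wells divided by growth signal over untreated wells; some hits fall short of that in this replicate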
CSC inhib: cancer stem cell inhibition | inhibition, % at 7.5 µM | 300,000 compounds, 1.1% hits | AID 2717 | cancer stem cell-like cells viability, luminescence;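 active means mean at 75% or more and at least half the replicates too; inconclusive means mean and replicates disagree; tested in HMLE shEcad cells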;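 further: 0% = median of negative and 100% = median of positive control wells; the first replicate is given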
eIF4H FP inh retest: recorded beside eIF4H FP inh, whose call it bears; inhibition, %; compound at 20 µM; confirmation average;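 mean of two retest wells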
PABP polyA inh retest: second read-out of PABP polyA inh, no call of its own (marks repeat the call); inhibition, %; compound at 20 µM; confirmation repeats;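 mean of two retest wells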
MT1-MMP act inh RFP: further read-out of MT1-MMP act inh, marked with its call; RFP signal change, %; measured here: RFP expression control read;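 0 = vehicle wells; hits needed this value within 50% of zero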
Numbers without * were called inactive; i = inactive; u = inconclusive; x = no result given. Not all compounds are listed; rates above refer to the full screens.

SMILES | PABP polyA inh | eIF4H FP inh | Rce1 inhib | MT1-MMP act inh | MT1-MMP act inh RFP | Env fusion inh | UUG fidelity | CSC inhib | others
C/C(=N\OCc1ccccc1)c1c(O)cc(C(C)C)n(-c2ccccc2)c1=O | -4 | 2 | i | 2 | 0 | x | x | 65
O=C(Nc1nccs1)c1cccc(NC(=O)c2ccco2)c1 | 7 | -5 | x | 1 | 0 | x | -7 | 4
CSCCC(NC(=O)c1cc(S(=O)(=O)N2CCOCC2)ccc1F)c1nc2ccccc2[nH]1 (stereo unspecified) | x | x | x | -3 | -1 | -2 | -11 | -2
CCCCCN(C(=O)CCC(=O)OCc1cccc(C(F)(F)F)c1)c1c(N)n(CCCC)c(=O)[nH]c1=O | -6 | 0 | i | -10 | -9 | -18 | -9 | -16
C=C(C)CSCc1nc2ccccc2[nH]1 | 2 | -6 | i | -1 | 4 | x | -14 | -10
COc1ccccc1-n1cnnc1SCC(=O)Nc1cc(C(C)(C)C)nn1-c1ccccc1 | -2 | -16 | i | -3 | -5 | x | -2 | 5
CCOc1ccc(S(=O)(=O)Nc2cccc(C)c2)c2cccnc12 | 5 | -2 | i | -2 | 0 | 11 | x | -17
O=C(NCc1ccco1)c1cc2c(s1)CCCCC2 | 31 | 81 | i | -2 | 4 | -46 | -20 | -7 | eIF4H FP inh retest=1;PABP polyA inh retest=-3
Cn1nc(NC(=O)C(F)(F)F)c2nccnc21 | x | x | x | -1 | -1 | -5 | -7 | x
O=C(CSc1nnc(-c2ccco2)n1Cc1ccco1)Nc1ccccc1 | 8 | 0 | i | 2 | -3 | -18 | -16 | -18
O=C(CSc1nncs1)Nc1ccc(S(=O)(=O)N2CCCC2)cc1 | -5 | -6 | i | 1 | 0 | -10 | x | x
COc1cc(C2NC(=O)NC(C)=C2C(=O)OCC2CCCCC2)ccc1O (stereo unspecified) | 8 | -2 | x | -3 | -3 | -9 | -3 | -7
CCOC(=O)Cc1nnc(NC(=O)COc2ccc(OC)cc2)s1 | -5 | -2 | i | 3 | 4 | -51 | -20 | x
O=C(NC(NCc1cccnc1)C(Cl)(Cl)Cl)c1cccc2ccccc12 (stereo unspecified) | 4 | -3 | i | -12 | -3 | 10 | -1 | -9
Cc1nc2ccccc2n1CCC(=O)Nc1cccc(F)c1 | 6 | 0 | i | -1 | -3 | x | -5 | -12
Cc1cccc(C(=O)Nc2ccc3c(c2)C(=O)N(CC(C)C)C3=O)c1 | 0 | -1 | i | 3 | -4 | -61 | -12 | 2
C#CCOCCOCCOCCNc1nc(N2CCN(C(=O)CCCCCCCCCCNC(=O)Cn3cc(CCCCCN)nn3)CC2)nc(N2CCN(C(=O)CCCCCCCCCCNC(=O)[C@H](CO)n3cc(CCCSC)nn3)CC2)n1 | x | x | x | 7 | 0 | x | -12 | 36
Cc1occc1-c1nnc(SCC(=O)NC2CC2)n1C(C)C | -6 | 8 | i | 1 | 0 | 6 | -8 | -6
Cc1ccc(C)c(SCc2noc(C(=O)NC(C)C)c2C(=O)O)c1 | 2 | -3 | i | 3 | 4 | -7 | 4 | 26
N#Cc1c(-c2ccccc2)[nH]c(=S)[nH]c1=O | 16 | -4 | i | -1 | 3 | -20 | x | -16
CC(C)Oc1ccc(N2C(=O)c3ccccc3C2=O)cc1 | 4 | 2 | i | 4 | 10 | x | -36 | 16
Cc1ccc(S(=O)(=O)N2CCC(C(=O)NCC3CC3)CC2)cc1 | 2 | 3 | x | 2 | 1 | 3 | -13 | -11
COc1cccc(NC(=O)N2CCCC2C(=O)NCc2ccc(Cl)cc2)c1 (stereo unspecified) | 1 | -8 | i | x | x | 3 | -20 | -17
CCOC(=O)C(=Nc1ccc(Cl)cc1)NO | 0 | 7 | i | 2 | 6 | 9 | -9 | -11
O=S(=O)(N/N=C1/CCCc2ccccc21)c1ccc(Br)cc1 | 0 | -2 | i | -2 | 2 | x | -2 | 54
COc1ccc(OC)c(/C=N/Nc2nc(C)cc(=O)[nH]2)c1 | -1 | -7 | i | -2 | 4 | 17 | -24 | -3
N#CC1CCN(c2ncccc2[N+](=O)[O-])CC1 | 9 | -2 | i | 2 | 1 | 9 | 7 | -14
O=C(O)c1cnn2c(-c3ccccc3)ccnc12 | 11 | -6 | i | 2 | 2 | 14 | 1 | 3
CCOC(=O)c1c(NC(=O)/C=C/C(=O)O)sc(C)c1-c1ccc(F)cc1 | 13 | 6 | i | -5 | -8 | 7 | x | -4
O=C(COC(=O)c1ccccn1)Nc1nc(-c2cccc([N+](=O)[O-])c2)cs1 | 5 | -5 | i | 4 | 2 | -30 | -22 | x
O=C1C2C3c4ccccc4C(c4ccccc43)C2C(=O)N1/N=C/c1cccc(O)c1 (stereo unspecified) | 0 | -1 | i | -3 | -7 | -36 | -20 | 24
COC(=O)c1c(NC(=O)Cn2cc([N+](=O)[O-])cn2)sc2c1CCC2 | 2 | 5 | i | -3 | 0 | x | -12 | -7
CCCNc1cc(=S)nc(N)[nH]1 | u | u | i | 6 | 4 | 8 | -34 | 16
Cc1cccc(CS(=O)(=O)c2ncc(Cl)c(C(=O)NCc3ccc4c(c3)OCO4)n2)c1 | 5 | 0 | i | 2 | 5 | 44 | -10 | -17
Cc1ncc(CCl)c2c1OC(C)(C)OC2 | 4 | 1 | i | 0 | 1 | -8 | -19 | x
COc1ccc(OCc2cc(C(=O)N3CCCC(CO)C3)no2)c2ccccc12 (stereo unspecified) | 19 | -1 | i | -2 | 6 | -26 | 6 | -4
Cc1cccc(NC(=O)c2ccc3c(=O)n(CC4CCCO4)c(=S)[nH]c3c2)c1 (stereo unspecified) | 4 | -12 | i | 5 | -11 | 10 | -20 | -4
COc1ccccc1C(=O)NC(C(=O)NCCc1nc2ccccc2[nH]1)=C(C)C | -2 | -5 | i | -3 | 2 | 10 | -20 | -15
c1ccc(-c2csc(NC3CCCCC3)n2)cc1 | -2 | 0 | x | -4 | 1 | -88 | -34 | 2
COc1ccc(-c2nc(CSCC(=O)N3CCC(C(N)=O)CC3)c(C)o2)cc1OC | -3 | -4 | i | 2 | 1 | -4 | -16 | 3
O=C(Cc1cccs1)Nc1ccc([N+](=O)[O-])cc1 | 2 | -4 | i | 4 | -1 | -4 | -9 | -10
O=C(NNC(=S)Nc1ccccc1Cl)c1ccncc1 | 5 | 11 | i | -1 | -2 | -5 | -37 | 2
CCN(C(=O)CSc1ccc2ccccc2n1)C1CCCCC1 | x | x | x | -2 | -9 | 7 | 8 | -18
Cc1nn(-c2ccccc2)c(C)c1/C=C/C(=O)OCC(=O)N(C)C1CCS(=O)(=O)C1 (stereo unspecified) | 0 | -15 | i | 0 | -1 | 15 | 4 | -9
CCCC(c1nnnn1CS(=O)(=O)c1ccc(C)cc1)N1CCN(c2ccc(F)cc2)CC1 (stereo unspecified) | 5 | 2 | i | -7 | -11 | -190 | -1 | 12
C=CCOc1ccc(/C=C2\SC(=S)N(NS(=O)(=O)c3ccc(C)cc3)C2=O)cc1 | 27 | 32 | i | 7 | 6 | -6 | 5 | 41
CC(=O)c1cnc(Nc2nc(C)c3ccccc3n2)nc1C | 2 | -8 | i | x | x | x | x | -13
COc1ccc(-c2cc(OC(=O)c3ccc(F)cc3)c3c(C)oc(C)c3c(=O)c2)cc1 | 10 | 17 | x | x | x | x | x | -5
Fc1cc(F)cc(-c2c(-c3ccccc3)ncc3ccc(F)cc23)c1 | x | x | x | -1 | -4 | x | -19 | 32
COC(=O)c1nnn(CC(=O)NC(=O)Nc2c(C)cccc2C)c1C(=O)OC | 14 | 0 | i | 0 | -3 | -2 | x | 6
O=C(NCc1ccccc1)c1ccc(CS(=O)(=O)Cc2ccc(F)cc2)o1 | 6 | 3 | i | 1 | -3 | 12 | -11 | -2
CC(C)c1nnc(NC(=O)CCS(=O)(=O)c2ccccc2)s1 | 0 | -2 | i | -1 | -4 | 5 | -22 | 7
CCCSc1oc(-c2ccco2)nc1S(=O)(=O)c1ccccc1 | -6 | 3 | i | -3 | -5 | 4 | 6 | -12
CC(C)[C@H](NC(=O)c1ccc(Cl)cc1Cl)C(=O)NNc1cccc(C(=O)O)c1 | x | x | x | 9 | 4 | -12 | x | -2
O=C1CN(c2ccccc2Cl)C(=O)CN1c1ccccc1Cl | 6 | -5 | i | 1 | 1 | -2 | -5 | -9
O=C(N[C@H]1C/C=C\C[C@@H](CC(=O)N(CCO)Cc2ccccc2)C(=O)N[C@H](Cc2c[nH]c3ccccc23)COC1=O)OCC1c2ccccc2-c2ccccc21 | x | x | x | 10 | -2 | -51 | -22 | -13
O=C1CC(c2ccccc2)CN1C(=O)c1cncc(Br)c1 (stereo unspecified) | 0 | -1 | i | -5 | -2 | 5 | x | -8
N#Cc1ccc(CSc2nnc(NC(=O)CN3C(=O)C4CC=CCC4C3=O)s2)cc1 (stereo unspecified) | 0 | -11 | i | 4 | -2 | 5 | 0 | 3
CN(/N=C/c1ccncc1)C1=NCCN1 | -6 | -4 | i | 4 | 2 | -9 | -18 | -3
O=C(Nc1ccccn1)N1CCOCC1 | -5 | -4 | i | 0 | 3 | -47 | 0 | -7
CCCNC(=O)NCCC12CC3CC(CC(C3)C1)C2 | 1 | -6 | i | 0 | 2 | 27 | x | 12

Molecules above with fluorine, in the order listed:
SMILES | PABP polyA inh | eIF4H FP inh | Rce1 inhib | MT1-MMP act inh | MT1-MMP act inh RFP | Env fusion inh | UUG fidelity | CSC inhib | others
CSCCC(NC(=O)c1cc(S(=O)(=O)N2CCOCC2)ccc1F)c1nc2ccccc2[nH]1 (stereo unspecified) | x | x | x | -3 | -1 | -2 | -11 | -2
CCCCCN(C(=O)CCC(=O)OCc1cccc(C(F)(F)F)c1)c1c(N)n(CCCC)c(=O)[nH]c1=O | -6 | 0 | i | -10 | -9 | -18 | -9 | -16
Cn1nc(NC(=O)C(F)(F)F)c2nccnc21 | x | x | x | -1 | -1 | -5 | -7 | x
Cc1nc2ccccc2n1CCC(=O)Nc1cccc(F)c1 | 6 | 0 | i | -1 | -3 | x | -5 | -12
CCOC(=O)c1c(NC(=O)/C=C/C(=O)O)sc(C)c1-c1ccc(F)cc1 | 13 | 6 | i | -5 | -8 | 7 | x | -4
CCCC(c1nnnn1CS(=O)(=O)c1ccc(C)cc1)N1CCN(c2ccc(F)cc2)CC1 (stereo unspecified) | 5 | 2 | i | -7 | -11 | -190 | -1 | 12
COc1ccc(-c2cc(OC(=O)c3ccc(F)cc3)c3c(C)oc(C)c3c(=O)c2)cc1 | 10 | 17 | x | x | x | x | x | -5
Fc1cc(F)cc(-c2c(-c3ccccc3)ncc3ccc(F)cc23)c1 | x | x | x | -1 | -4 | x | -19 | 32
O=C(NCc1ccccc1)c1ccc(CS(=O)(=O)Cc2ccc(F)cc2)o1 | 6 | 3 | i | 1 | -3 | 12 | -11 | -2
